# Assay outcomes (PubChem BioAssay)
# HCMV UL50-53 inh = inhibitors of HCMV UL50-UL53 interaction, biochemical, HTRF | AID 1918969, 2023 | inhibition, % (concentration not given with the values) | HCMV UL50-UL53 nuclear egress complex (human cytomegalovirus) | normalized percent inhibition | actives 0.15% (n = 190,000);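 active = both replicates at 50% or more, plus weaker picks with an unusually low signal ratio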;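 also: stock transfer was 100 nL into about 20 µL; 0% = negative control wells and 100% = wells with untagged competitor protein; inactives centre near -12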
# Sa growth inh = S. aureus growth inhibition at 42 and 30 °C, primary screen, LtaS inhibitor project, RN4220, two temperatures. OD600, 20 h, 42 °C; stronger effect = lower value. relative growth, % (no concentration beside the values). actives 0.53% (n = 170,000). AID 720641, 2013;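 active = growth at 42 °C up to 50% and 20 or more points under that at 30 °C, or under 10% at both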;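 also: 300 nL library stock went into each well; scaled to the means of positive and negative controls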
# GIV Gai3 FP = inhibitors of GIV peptide binding to Galpha-i3, primary screen, biochemical, fluorescence polarization, FITC-GIV GBA peptide, rat Galphai3; AID 1224905, 2016; percent of control (FP), % (test concentration not listed); actives 0.42% (n = 210,000); 90 min; stronger effect = lower value; scaled: aluminum fluoride 0%, vehicle 100%; Guanine nucleotide-binding protein G(i) subunit alpha-3 (Rattus norvegicus), P08753;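 active = replicate mean at 85% of control or lower, very high polarization wells dropped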;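 also: wells of about 15 µL received 100 nL stock; the first replicate is given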
# Target sequence (P08753 whole entry, looked up): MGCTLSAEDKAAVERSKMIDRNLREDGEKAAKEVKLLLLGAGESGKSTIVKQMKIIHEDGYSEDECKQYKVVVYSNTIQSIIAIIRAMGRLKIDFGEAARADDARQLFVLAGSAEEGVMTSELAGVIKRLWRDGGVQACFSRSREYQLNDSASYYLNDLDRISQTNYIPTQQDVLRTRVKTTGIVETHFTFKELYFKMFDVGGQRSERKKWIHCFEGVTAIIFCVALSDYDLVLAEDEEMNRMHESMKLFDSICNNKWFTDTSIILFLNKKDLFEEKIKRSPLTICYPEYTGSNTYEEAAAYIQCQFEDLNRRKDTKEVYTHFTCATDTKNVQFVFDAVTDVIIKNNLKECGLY
# Sa growth inh second temp = recorded beside Sa growth inh, whose call it bears; relative growth, %; measured here: growth at 30 °C;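 optical density after 20 h as mean of two plates; 100% = untreated growth and lower means inhibition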
# Numbers without * were called inactive; nt = no result given; & = joins results of further samples.
SMILES,HCMV UL50-53 inh,Sa growth inh,Sa growth inh second temp,GIV Gai3 FP
Cc1ccccc1NC(=O)CC1COc2ccccc2O1 (stereo unspecified),-12,115,68,101
COCCn1cc(C(=O)NCCCOC(C)C)c2c3ccccc3n(C)c2c1=O,-2,90,88,111
CC(NC(=O)c1cccs1)C(C)(C)C (stereo unspecified),4,106,109,108
O=C(NCCO)c1ccc(N2C(=O)c3ccccc3C2=O)cc1,nt,94,88,101
CN(C)/C=C/C=C1\CC/C(=C\C=C\N(C)C)C1=O,21,70,76,155
COc1ccccc1NC(=O)N1CCC2(CC1)Nc1ccccc1-n1cccc12,-7,nt,nt,102
CCOC(=O)/C=C(\C)N1N=C(c2ccccc2)CC1c1ccccc1[N+](=O)[O-] (stereo unspecified),-19,nt,nt,101
Cc1ccc2nc(-c3ccc(NC(=O)C(C)N4CCN(C(=O)c5ccco5)CC4)cc3)sc2c1 (stereo unspecified),1,80,92,nt
CC1(C)CC(=O)c2c(O)cc(OCC(=O)O)cc2O1,-11,nt,nt,100
O=S(=O)(Nc1nc(SCc2ccc(Cl)cc2)n[nH]1)c1ccc(F)cc1,-3,119,85,101
CCc1ccc(NC(=O)C2CCN(c3ncccn3)CC2)cc1,-3,95,89,95
N#CCCC(=O)c1ccccc1,0,74,83,105
Cc1cc(C)cc(NC(=O)CSc2ccc(-c3cccs3)nn2)c1,nt,67,58,99
Fc1ccc2c(c1)NC(c1ccncc1)=NC(c1cccs1)=N2,-24,110,96,98
O=C(CSc1nc2cc(Cl)ccc2s1)Nc1ccccc1Cl,-40,116,84,nt
CC(=Nc1ccc(S(=O)(=O)N2CCOCC2)cc1)Nc1ccc(C(=O)O)c(O)c1,-1,71,70,nt
O=C(Cn1nnc2ccccc2c1=O)NCCOc1nnnn1-c1cccs1,-35,92,80,102
O=C(Cn1[nH]c(=O)c2ccccc2c1=O)Nc1cccnc1,-2,88,99,nt
Cc1cccc(N2CCN(Cc3cc(=O)oc4cc(C)ccc34)CC2C)c1 (stereo unspecified),-18,109,84,95
CCOc1cc(/C=C2/SC(=S)N(C)C2=O)cc(Br)c1O,-1,91,82,-47*
O=C(NCc1cccs1)c1ccc2c(c1)sc1nc(-c3ccccc3)cn12,nt,92,62,116
Cc1nn(-c2ccccc2)c(C)c1/C=N/NC(=O)CCc1ccc(S(=O)(=O)N2CCOCC2)cc1,-15,83,93,nt
N=S(=O)(c1ccc(Cl)cc1)c1cccs1 (stereo unspecified),-11,90,86,96
N#C/C(=C(/O)CSc1ccccc1C(=O)O)c1nc2ccccc2s1,-7,88,79,nt
Cn1c(=O)oc2cc(S(=O)(=O)N3CCC4(CC3)Nc3cc(F)ccc3-n3cccc34)ccc21,-15,nt,nt,105
CCc1cc2c(=O)c(-c3nc4ccccc4[nH]3)coc2cc1O,-9,92,88,107
Cc1nonc1NC(=O)c1ccccc1Cl,-14,nt,nt,98
O=CN1CCN(C(=O)CSc2ncnc3sccc23)CC1,-15,89,82,nt
Cc1cc(NS(=O)(=O)c2ccc(NC(=O)c3ccccc3C)cc2)nc(C)n1,-22,99,88,93
CCc1cc2c(=O)c(-c3nc4ccccc4[nH]3)c(CCC(=O)O)oc2cc1O,-14,90,92,nt
COc1ccc(/C=C/C(=O)NC2CCN(Cc3ccccc3)CC2)cc1OC,-34,119,82,nt
N/C(CSc1nc2ccccc2s1)=N\O,nt,114,90,106
N#CCc1nc(-c2ccc(C#N)cc2)cs1,-3,82,89,124
CCOC(=O)C1=C(CSCc2ccccc2)NC(=O)NC1CC (stereo unspecified),-25,95,87,nt
Cc1cc(C)n2nc(C(F)(F)F)c(-c3ccccc3)c2n1,-18,75,90,109
Cc1cc(C)c2nc(C)cc(C(=O)O)c2c1,-9,nt,nt,103
CCc1cccc(NC(=O)CSc2ncc3c(n2)-c2ccccc2N(Cc2ccccc2C)S3(=O)=O)c1,nt,111,95,109
N#Cc1cc2c(nc1SC1CCCCC1O)CCCC2 (stereo unspecified),5,105,94,105
COc1cc(CN2CCc3nc(N4CCN(c5ccccn5)CC4)ncc3C2)cc(OC)c1OC,nt,101,86,106
N#C/C(=C(/O)CN1CCN(S(=O)(=O)c2ccccc2C#N)CC1)c1nc2ccccc2[nH]1,-15,105,96,nt
N#CCCOc1ccccc1,-23,86,87,nt
N#Cc1c(N)nc(SCC(=O)c2ccc3ccccc3c2)c(C#N)c1-c1ccccc1,21*,nt,nt,97
CCOC(=O)C1=C(C)N=c2s/c(=C\c3cc(Br)ccc3O)c(=O)n2C1c1ccc(OC)cc1 (stereo unspecified),-8,nt,nt,95
Cn1c(C(=O)NCc2ccc(F)cc2)cc2c(=O)n(C)c3ccccc3c21,-4,97,87,107
Cc1cc(C)c2c(=O)cc(C(=O)Nc3c(C)n(C)n(-c4ccccc4)c3=O)oc2c1,-16,105,90,109
CC(N=C1NS(=O)(=O)c2ccccc21)C(=O)OC(C)C(=O)Nc1ccc2c(c1)OCO2 (stereo unspecified),-8,79,85,nt
CCCS(=O)(=O)c1c(Nc2ccccc2C)sc(C(=O)c2ccccc2)c1N,-15,103,81,106
COc1ccc(CCNc2ncnc3c2cnn3-c2ccc(C)cc2)cc1,nt,110,82,101
COCCCN=C1NS(=O)(=O)c2ccccc21,-6,105,96,106
O=C(NCC1CCCO1)c1ccc(N2C(=O)CCS2(=O)=O)cc1Cl (stereo unspecified),-25,nt,nt,103
NC(=O)C1CCN(C(c2ccccc2)c2nnnn2Cc2ccccc2)CC1 (stereo unspecified),-14,97,84,103
O=C(O)c1cc(F)cc(C(F)(F)F)c1,-28,106,86,97
Cc1nnn(C23CC4CC(CC(C(=O)N5CCCCCC5)(C4)C2)C3)n1,nt,97,89,105
CCOc1ccc(Nc2oc(/C=C/c3ccc(OC)c(OC)c3)nc2C#N)cc1,-6,91,88,98
CCOc1ccc(-n2c(-c3ccc(Br)cc3)cc3c2CC(C)(C)CC3=O)cc1,-4,111,89,100
CCOc1ccc(C(=O)Cc2ccccc2)cc1,-8,78,88,108
CS(=O)(=O)Nc1ccc2nc(N3CCN(c4ccc(F)cc4)CC3)cc(C(=O)O)c2c1,-21,nt,nt,97
CC1=C(C(=O)Nc2ccc(C)cc2C)C(c2cc(Br)ccc2F)n2ncc(C(=O)Nc3ccc(C)cc3)c2N1 (stereo unspecified),nt,90,76,99
C=CCn1cnc2c(cnn2-c2ccc(Cl)cc2)c1=O,-2&-16,97,81,103&99
CCCCNC(=O)c1cc(-c2cccnc2)nc2ccc(S(=O)(=O)NCCCC)cc12,nt,86,72,99
# (more compounds)
SMILES,HCMV UL50-53 inh,Sa growth inh,Sa growth inh second temp,GIV Gai3 FP
O=C(CSc1ccccn1)N1CCN(c2ccccc2)CC1,7,97,94,nt
Cn1c(SCc2ccccc2Cl)nc(=O)c2c1NC(=O)CC2c1cc(F)ccc1F (stereo unspecified),-25,77,61,99
O=C(CSc1nnc2sc3ccccc3n12)Nc1ccc(F)c(Cl)c1,-6,nt,nt,100
Cc1c(Cl)cccc1NC(=O)Cn1c(=O)n(-c2ccc(CC(=O)NC3CC3)cc2)c(=O)c2ccccc21,12,nt,nt,106
O=C(Nc1ccccc1)c1cccnc1Cl,-26,nt,nt,105
N#Cc1c(NC(=O)CCN2C(=O)c3ccccc3C2=O)sc2c1CCCCC2,-6,nt,nt,100
CCN1CCN(C(=O)C(C)Sc2nc3nn(-c4ccccc4)c(=O)c-3c3n2CCCCC3)CC1 (stereo unspecified),-38,92,93,nt
CN(C)CCOc1nc(-c2ccccc2)nc2c1oc1ccccc12,-1,90,98,106
COc1ccc(C2=NN(C(=O)c3ccccc3Cl)C(c3cccc([N+](=O)[O-])c3)C2)cc1 (stereo unspecified),-13,nt,nt,104
O=C(CSc1nnc(C2CC2)n1Cc1ccccc1)c1cc2ccccc2o1,-92,55,65,nt
O=C(Cc1csc(-c2ccccc2)n1)N(Cc1ccco1)Cc1cccs1,23,126,94,nt
O=C(Nc1ccc(CN2CCCCC2)cc1)c1cccnc1Cl,-3,91,85,102
COc1ccc(CNC(=O)C(NS(=O)(=O)c2ccc3c(c2)oc(=O)n3C)C(C)C)cc1 (stereo unspecified),-27,81,85,100
CN(C(=O)c1ccccc1F)C(C(=O)Nc1ccc2c(c1)OCCO2)c1ccccc1 (stereo unspecified),-16,89,86,92
COc1ccc(NC(=O)c2ccccc2I)cn1,-40,78,89,nt
Cn1c(=O)n(C)c2cc(NC(=O)CN3C(=O)c4ccccc4S3(=O)=O)ccc21,1,nt,nt,107
COC(=O)c1ccc(-n2nnc(-c3nc(-c4ccccc4Cl)no3)c2C)cc1,nt,103,88,100
Cc1ccc(S(=O)(=O)/N=C(/CN2CCOCC2)N2CCN(S(=O)(=O)c3ccc(C)cc3)C2C)cc1 (stereo unspecified),-23,87,87,98
Cc1nn(-c2ccccc2)c2nc(Cl)c(C(=O)O)cc12,-17,91,94,nt
c1ccc(C2=Nn3c(nnc3C3COc4ccccc4O3)SC2)cc1 (stereo unspecified),-12,95,67,101
O=c1[nH]c(SCc2c(Cl)cccc2Cl)nc2ccnn12,-11,40,23,100
O=C(NCc1ccccc1)C(=O)NCC(c1cccnc1)N1CCN(c2ccccc2)CC1 (stereo unspecified),-4,85,91,102
Cc1nn(Cc2cccc(C(=O)NC(=O)Nc3ccc(Cl)cc3)c2)c(C)c1Br,-37,89,84,102
O=C(CN1C(=O)CSc2ccccc21)N/N=C/c1cccnc1,-35,99,91,100
COC(=O)C1CCN(C(=O)Cc2ccc(C)cc2)CC1,nt,86,92,100

# 19 of these compounds in a different format.
SMILES | HCMV UL50-53 inh | Sa growth inh | Sa growth inh second temp | GIV Gai3 FP
Cc1c(Cl)cccc1NC(=O)Cn1c(=O)n(-c2ccc(CC(=O)NC3CC3)cc2)c(=O)c2ccccc21 | 12 | nt | nt | 106
O=C(Nc1ccccc1)c1cccnc1Cl | -26 | nt | nt | 105
N#Cc1c(NC(=O)CCN2C(=O)c3ccccc3C2=O)sc2c1CCCCC2 | -6 | nt | nt | 100
CCN1CCN(C(=O)C(C)Sc2nc3nn(-c4ccccc4)c(=O)c-3c3n2CCCCC3)CC1 (stereo unspecified) | -38 | 92 | 93 | nt
CN(C)CCOc1nc(-c2ccccc2)nc2c1oc1ccccc12 | -1 | 90 | 98 | 106
COc1ccc(C2=NN(C(=O)c3ccccc3Cl)C(c3cccc([N+](=O)[O-])c3)C2)cc1 (stereo unspecified) | -13 | nt | nt | 104
O=C(CSc1nnc(C2CC2)n1Cc1ccccc1)c1cc2ccccc2o1 | -92 | 55 | 65 | nt
O=C(Cc1csc(-c2ccccc2)n1)N(Cc1ccco1)Cc1cccs1 | 23 | 126 | 94 | nt
O=C(Nc1ccc(CN2CCCCC2)cc1)c1cccnc1Cl | -3 | 91 | 85 | 102
COc1ccc(CNC(=O)C(NS(=O)(=O)c2ccc3c(c2)oc(=O)n3C)C(C)C)cc1 (stereo unspecified) | -27 | 81 | 85 | 100
CN(C(=O)c1ccccc1F)C(C(=O)Nc1ccc2c(c1)OCCO2)c1ccccc1 (stereo unspecified) | -16 | 89 | 86 | 92
COc1ccc(NC(=O)c2ccccc2I)cn1 | -40 | 78 | 89 | nt
Cn1c(=O)n(C)c2cc(NC(=O)CN3C(=O)c4ccccc4S3(=O)=O)ccc21 | 1 | nt | nt | 107
COC(=O)c1ccc(-n2nnc(-c3nc(-c4ccccc4Cl)no3)c2C)cc1 | nt | 103 | 88 | 100
Cc1ccc(S(=O)(=O)/N=C(/CN2CCOCC2)N2CCN(S(=O)(=O)c3ccc(C)cc3)C2C)cc1 (stereo unspecified) | -23 | 87 | 87 | 98
Cc1nn(-c2ccccc2)c2nc(Cl)c(C(=O)O)cc12 | -17 | 91 | 94 | nt
c1ccc(C2=Nn3c(nnc3C3COc4ccccc4O3)SC2)cc1 (stereo unspecified) | -12 | 95 | 67 | 101
O=c1[nH]c(SCc2c(Cl)cccc2Cl)nc2ccnn12 | -11 | 40 | 23 | 100
O=C(NCc1ccccc1)C(=O)NCC(c1cccnc1)N1CCN(c2ccccc2)CC1 (stereo unspecified) | -4 | 85 | 91 | 102
